Calb FLC = C. albicans growth modulation with fluconazole; C. albicans CaCi-2 (fluconazole-resistant clinical isolate) + fluconazole, Alamar Blue growth, 48 h; growth inhibition, % (concentration not given with the values); 0.57% of 300,000 active; AID 1979;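 active means most replicates above 75%; inconclusive means exactly half above 75%; inactive means most below 75%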;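 further: all wells also contain fluconazole at 8 µg/ml as a sub-toxic cotreatment; 0% = median of DMSO wells and 100% = median of geldanamycin control wells; wells of about 8 µL received 7.5 nL stock; the first replicate is given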
Beta cell apopt = blocks beta cell apoptosis; INS-1E cytokine-induced death, ATP luminescence, 48 h; percent of positive-control rescue, neutral wells zero; protection from apoptosis, % (concentration not given with the values); 0.8% of 300,000 active; AID 435005;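 active means all replicates at 75% or more, or half of them and the mean; inconclusive means half reach 75% but not the mean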;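 further: 0% = cytokine-treated negative control wells and 100% = positive control rescue; higher means more ATP so stronger rescue from cytokine killing; wells of about 40 µL received 100 nL stock; the first replicate is given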
ALR H2O2 inh = inhibitors of human sulfhydryl oxidase ALR | purified ALR, DTT oxidation, H2O2 HRP-luminol luminescence | 3.8% of 290,000 active | inhibition, % (concentration not given with the values) | AID 485317;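 active means mean and each replicate at 75% or more; inconclusive means only one of the two met; inactive means neither met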;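 further: stock transfer was 7.5 nL into about 7.5 µL; 0% = neutral wells and 100% = wells with inactivated enzyme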
Ecoli rRNA inh = inhibitors of bacterial rRNA selective over humanized ribosomes | AID 720706 | GFP signal change (wild-type ribosome), % (test concentration not listed) | E. coli WT GFP vs humanized-ribosome RFP mutants, fluorescence, 24 h; stronger effect = lower value; DMSO median 0, no signal -100 | 1.6% of 350,000 active;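 active means significant combined selectivity score with lowered wild-type GFP, culture density cut under 30%, mutant RFP and density less affected; inactive means any of these conditions unmet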; further: one replicate is shown; some compounds called inactive have numbers as strong as hits
T cruzi inh = T. cruzi replication inhibition | T. cruzi beta-gal in NIH3T3, luminescence, 90 h | inhibition, % (test concentration not listed) | 1.4% of 300,000 active | AID 1885;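 active means mean inhibition across valid replicates above about 55%, limit read from the data; inconclusive means mean below that limit but half or more replicates reach it; inactive means mean below it, under half of replicates reach it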;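 further: signal also drops with host cell toxicity which is not excluded here; 0% = plate median of DMSO wells and 100% = zero luminescence signal; higher percent means less beta-gal luminescence so fewer parasites; stock transfer was 50 nL into about 50 µL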
Beta2AR agonist = agonists of human beta-2 adrenergic receptor inducing internalization; Am2.2-beta2AR cells, FAP receptor internalization, flow cytometry; reference of the scale not given here; response, % (test concentration not listed); 0.43% of 340,000 active; AID 504454;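 active means response above a set limit, near 3 SD of response in nonfluorescent compounds, cut at about 42% in these data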;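 further: stock transfer was 100 nL into about 11 µL; a reference agonist was the positive control; negative values mostly stem from fluorescent compounds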
LANA-H2A inh = blocks KSHV LANA binding to histone H2A/H2B; Q9QR71; cell-free LANA-H2A/H2B peptide, fluorescence polarization; inhibition, % (no concentration beside the values); 0.6% of 320,000 active; AID 2629; in the data active means inhibition mostly above about 10%, no sharp cut-off; inactive means mostly below about 6.7%;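 further: stock transfer was 7.5 nL into about 10 µL; 0% = median of vehicle wells and 100% = median of positive control wells; one replicate is shown; the record names a cut of 25% in any replicate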
Target sequence (Q9QR71 whole entry, looked up): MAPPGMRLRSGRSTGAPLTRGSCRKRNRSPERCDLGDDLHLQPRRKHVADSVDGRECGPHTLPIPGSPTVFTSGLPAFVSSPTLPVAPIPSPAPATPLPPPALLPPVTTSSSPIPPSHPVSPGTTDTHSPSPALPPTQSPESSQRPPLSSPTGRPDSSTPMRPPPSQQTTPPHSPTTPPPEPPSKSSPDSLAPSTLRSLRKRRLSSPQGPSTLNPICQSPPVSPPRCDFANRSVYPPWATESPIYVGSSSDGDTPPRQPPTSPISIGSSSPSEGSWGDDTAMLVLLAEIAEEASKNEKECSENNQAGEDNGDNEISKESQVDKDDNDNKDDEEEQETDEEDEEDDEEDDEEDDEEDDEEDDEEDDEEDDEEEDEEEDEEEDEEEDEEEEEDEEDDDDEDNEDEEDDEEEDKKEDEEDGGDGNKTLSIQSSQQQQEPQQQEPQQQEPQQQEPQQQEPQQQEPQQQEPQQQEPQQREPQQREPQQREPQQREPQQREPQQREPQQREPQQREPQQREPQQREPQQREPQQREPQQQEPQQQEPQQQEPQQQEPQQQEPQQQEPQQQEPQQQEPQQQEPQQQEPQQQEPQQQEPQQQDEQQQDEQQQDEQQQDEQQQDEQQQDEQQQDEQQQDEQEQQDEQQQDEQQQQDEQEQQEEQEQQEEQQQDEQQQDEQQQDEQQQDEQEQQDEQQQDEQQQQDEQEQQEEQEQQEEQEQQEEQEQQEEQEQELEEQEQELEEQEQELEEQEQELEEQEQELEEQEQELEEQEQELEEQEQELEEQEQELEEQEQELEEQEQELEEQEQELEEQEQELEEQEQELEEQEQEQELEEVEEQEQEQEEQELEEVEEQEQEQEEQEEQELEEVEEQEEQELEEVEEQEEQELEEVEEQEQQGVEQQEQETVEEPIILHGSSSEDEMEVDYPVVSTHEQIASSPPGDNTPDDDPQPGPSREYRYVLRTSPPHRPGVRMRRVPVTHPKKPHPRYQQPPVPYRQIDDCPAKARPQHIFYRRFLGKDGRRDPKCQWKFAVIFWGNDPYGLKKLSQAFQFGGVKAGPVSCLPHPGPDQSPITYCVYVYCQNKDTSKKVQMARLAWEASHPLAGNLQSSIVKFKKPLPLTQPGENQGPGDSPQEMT
A1 inh = inhibitors of the anti-apoptotic protein A1, read as caspase activation. MEF A1-2A-BIM cells, Caspase-Glo 3/7 luminescence, 3 h; percent of clofoctol response, vehicle zero. caspase activation, % (concentration not given with the values). 0.066% of 330,000 active. AID 2462;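 active means over half of replicate activation scores above 10%, or exactly half above 10 with the replicate mean above 10; inconclusive means replicate mean below 10 yet half the replicates above 10; inactive means over half of replicates below 10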;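 further: wells of about 30 µL received 50 nL stock; many hits fall short of the cut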
Ecoli rRNA inh OD600 = also measured in Ecoli rRNA inh; calls as there; OD600 change, %; measured here: OD600 growth;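 optical density of the mix in the first replicate; 0 = DMSO median and -100 = no signal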
Ecoli rRNA inh RFP = second read-out of Ecoli rRNA inh, no call of its own (marks repeat the call); RFP signal change, %; measured here: RFP humanized mutant strains;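 first replicate; 0 = DMSO median and -100 = no signal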
Starred values were filed as active, the others as inactive; ? = inconclusive; . = no result given. An excerpt; rates above refer to the full screens.

Below each compound: T cruzi inh | LANA-H2A inh | ALR H2O2 inh | Ecoli rRNA inh OD600 | Beta cell apopt | Ecoli rRNA inh RFP | Beta2AR agonist | Calb FLC | A1 inh | Ecoli rRNA inh
#1 Cc1ccc(NC(=O)N2CCCCC2)cc1NC(=O)N1CCCCC1
 : 4 | -2.6 | 2 | 2 | . | -8.8 | -3 | -1 | -0.2 | 9
#2 CCN(CC)c1ccc(NC(=O)c2cnn(CC)c2)cc1
 : 26 | 0.4 | 99* | . | 11 | . | 4 | -18 | -0.6 | .
#3 CC(=O)c1cccc(NC(=O)C2CC(=O)N(c3ccc4c(c3)OCCO4)C2)c1 (centres undefined)
 : . | 0.3 | 15 | 23 | 2 | 0.3 | 1 | . | 1.5 | 6
#4 Cc1cc(NC(=O)/C(C#N)=C/c2ccco2)n(-c2ccccc2)n1
 : 2 | -1.9 | -9 | 1 | 5 | 2.3 | -13 | -1 | 0.2 | 5
#5 COc1ccc([C@H]2CC(=O)C=C(c3ccccc3)C2)cc1
 : . | 4.2 | 4 | . | 0 | . | -12 | . | 0.0 | .
#6 O=C(O)/C=C\c1cn(-c2ccccc2)nc1-c1cc2ccccc2o1
 : 13 | -0.8 | 64 | -42 | -6 | -4.8 | -15 | 47 | 0.0 | -38
#7 Cc1c(C)c2ccc(OCC(=O)NCCN3CCOCC3)cc2oc1=O
 : -9 | 0.9 | . | 7 | -4 | -1.3 | 0 | 12 | 1.5 | 1
#8 CCCCCc1cc(=O)oc2c(C(CCN(CC)CC)c3cc(OC)c(OC)c(OC)c3)c(OC)cc(OC)c12 (centres undefined)
 : 48 | 5.2 | . | -30 | 31 | 24 | 44* | 50 | -0.1 | -33
#9 CCOC(=O)C(C)Sc1nc(-c2ccccc2)nc2ccc(F)cc12 (centres undefined)
 : 6 | 1.4 | -3 | . | -7 | . | 7 | -20 | -0.4 | .
#10 Cc1cc(OCC(=O)N2CCOCC2)cc2oc(=O)c3ccccc3c12
 : -7 | -1.1 | -3 | . | 2 | . | -6 | -5 | -0.8 | .
#11 S=C1NCCc2ccccc2C1c1ccccc1 (centres undefined)
 : -3 | -8.9 | 5 | . | -5 | . | 0 | 7 | 0.2 | .
#12 O=C(O)CSc1nnc(Cc2cccc3ccccc23)n1-c1cc(C(F)(F)F)cc(C(F)(F)F)c1
 : 3 | -0.8 | 4 | 10 | -2 | -0.1 | -3 | 0 | 0.2 | 1
#13 CC(C)c1nnc(-c2ccc(Cl)cc2)c(N(C)C)n1
 : 10 | 4.3 | 11 | . | -1 | . | 5 | 11 | 0.0 | .
#14 O=C(O)CCS(=O)(=O)Cc1ccccc1Cl
 : -8 | 0.9 | -2 | 0 | -12 | -3.7 | 1 | 21 | 0.6 | 5
#15 CC(CNC(=O)COc1ccccc1)OC(=O)Nc1cccc(Cl)c1 (centres undefined)
 : -14 | -3.1 | -12 | . | 1 | . | -6 | -23 | 1.2 | .
#16 CCOc1cc(/C=C2/NC(=O)N(CC(=O)OC)C2=O)ccc1OC
 : -11 | 3.3 | . | 17 | 3 | 1.9 | -5 | -1 | 0.1 | 16
#17 Cc1cc(C)nc(Sc2ncnc3c2oc2ccccc23)n1
 : 10 | -6.5 | 38 | . | -13 | . | -18 | -2 | -0.1 | .
#18 CCCCOc1ccc(CN(CCO)CCO)cc1[N+](=O)[O-]
 : 19 | -1.2 | -21 | -8 | -4 | -2.6 | -1 | 27 | 0.4 | -8
#19 O=C(CSc1cn[nH]n1)Nc1cccc(C(F)(F)F)c1
 : -2 | 0.1 | 1 | 21 | 1 | 0.8 | 4 | 0 | 0.3 | 3
#20 C=C(C)CSc1nnc(-c2ccc(OC)cc2)n1N
 : 2 | 2.5 | 64 | . | -5 | . | 1 | -7 | 0.3 | .
#21 COc1cccc(CN(C)Cc2c(O)ccc3ccccc23)c1
 : -11 | -5.0 | . | 1 | -7 | -2.1 | 5 | -1 | -0.2 | -7
#22 Cc1csc2c(=O)sc(NC(=O)c3ccc(F)cc3)nc12
 : -10 | 0.0 | -4 | 10 | -4 | -1.1 | 1 | 0 | 0.4 | 9
#23 COc1ccc(S(=O)(=O)N/N=C\c2ccccc2F)cc1
 : -11 | 1.5 | 9 | -13 | -4 | -3.4 | 2 | 0 | 0.7 | -7
#24 CN(C)c1cc[n+](CC(=O)c2ccc(Br)cc2)cc1
 : -4 | -2.1 | 1 | 3 | 26 | 5.9 | 10 | ? | 0.1 | 7
#25 O=C1NC2(CCCC2)C(=O)N1CCS(=O)(=O)Oc1ccccc1
 : -1 | 2.9 | 2 | -1 | -5 | -3.4 | 7 | -1 | 1.3 | -4
#26 COCCCn1c(C)nnc1-c1cnn(-c2ccccc2)c1N
 : -2 | 1.3 | . | 1 | -1 | 0.2 | -4 | -8 | -0.7 | 11
#27 CC(=O)NS(=O)(=O)c1ccc(NC(=O)CCC2CCCC2)cc1
 : 0 | 1.3 | 1 | . | 3 | . | -4 | 4 | 0.7 | .
#28 Cc1cc(C(=O)CSc2nc3ccccc3c(=O)n2C)c(C)n1Cc1ccc2c(c1)OCO2
 : 49 | -0.9 | -13 | . | 99* | . | 8 | -10 | -0.5 | .
#29 CC1CCCC(NC(=O)COC(=O)c2ccc3c(c2)OCCO3)C1C (centres undefined)
 : . | -2.0 | 8 | . | -5 | . | 0 | . | 0.2 | .
#30 COc1ccc2c(c1)c(C(=O)CN1CCN(Cc3ccccc3)CC1)c(C)n2C
 : 20 | -12 | -8 | -10 | -5 | 5.9 | 5 | -5 | -0.3 | -2
#31 Cc1ccc(CCNC(=O)CN2C(=O)COc3ccccc32)cc1
 : 67* | 0.6 | -2 | 8 | 3 | 4.4 | 5 | 2 | 0.5 | 5
#32 Cc1cc[n+](Cc2ccc([N+](=O)[O-])cc2)cc1
 : -9 | -2.1 | . | 5 | -2 | -2.9 | 0 | -5 | 1.4 | 11
#33 Cc1nc(N)nc(COc2ccccc2)n1
 : -11 | -5.2 | -3 | 13 | . | 0.3 | -5 | 0 | -3.1 | -3
#34 O=C(Nc1ccccc1O)c1c(O)c2c([nH]c1=O)CCCC2
 : -15 | -3.3 | -2 | -43 | 5 | -8.2 | 9 | 21 | -2.0 | -41
#35 COc1cccc(NC(=O)CN(C)CC(=O)c2c(N)n(Cc3ccccc3)c(=O)n(C)c2=O)c1
 : . | -8.1 | . | 4 | -5 | -3.2 | 9 | . | -0.4 | 3
#36 CCN(CC(=O)Nc1c(F)cccc1F)C(=O)c1ccc(=O)n(Cc2ccccc2)n1
 : -3 | -5.0 | -1 | 5 | -1 | 1.6 | -1 | -1 | ? | 3
#37 Cc1oc(S(=O)(=O)N2CCOCC2)cc1C(=O)Nc1ccc(Cl)cc1
 : 4 | 1.9 | -4 | 20 | -2 | 0.3 | 11 | 10 | 0.6 | 15
#38 N#Cc1cc2c(nc1SCc1cccnc1)CCCCC2
 : 12 | -2.4 | -5 | . | . | . | 3 | 1 | 0.0 | .
#39 CCCNC(=O)NC1CCCc2ccccc21 (centres undefined)
 : -16 | -2.8 | 11 | 2 | 6 | -3.1 | -6 | 2 | 0.3 | 9
#40 Cc1sc2ncnc(Sc3nc4ccccc4s3)c2c1C
 : -7 | 0.0 | -2 | . | -4 | . | . | -7 | -0.5 | .
#41 CCOc1ccc(N2C(=O)Nc3ccccc3C2(O)C(=O)N2CCN(c3ccccn3)CC2)cc1 (centres undefined)
 : 4 | 1.6 | -4 | 0 | 0 | 1.9 | -1 | -4 | 1.2 | 1
#42 O=C1CCCCN1CCCC(=O)N1CCCC(Nc2ccccc2)C1 (centres undefined)
 : 16 | 4.2 | 99* | 10 | -6 | -0.7 | 3 | -2 | 0.7 | 14
#43 CN(CC(=O)NCCc1ccccc1)S(=O)(=O)c1ccc(Br)cc1
 : -1 | 0.7 | -9 | . | -7 | . | -6 | 2 | 0.5 | .
#44 O=C1C2C3C=CC(C3)C2C(=O)N1c1ncn[nH]1 (centres undefined)
 : 2 | 4.3 | -14 | . | -8 | . | -9 | -11 | 0.6 | .
#45 OC(c1ccccc1)C1CN(Cc2ccccc2)CCC1(O)c1ccccc1 (centres undefined)
 : 9 | -1.7 | 1 | -1 | -4 | 0.7 | 5 | 1 | 1.3 | 2
#46 COc1cc(/C=N/NC(=O)CCC(=O)Nc2ccc(F)cc2)ccc1O
 : -34 | -5.6 | 38 | -4 | -6 | 2.0 | 2 | 0 | 0.0 | 11
#47 Cc1ccc(C(=O)NC2CCCCCCC2)c(Cl)c1
 : -6 | 0.2 | 0 | -12 | -3 | -3.5 | -7 | 5 | -3.0 | -6
#48 Cc1ccc(NC(=O)N2CCCC2c2cccs2)cc1 (centres undefined)
 : -10 | -0.2 | -7 | -9 | -4 | -5.8 | -1 | 11 | -2.2 | -4
#49 CN1CCN(C(=O)c2ccc3c(c2)NC(=O)/C(=C/c2ccccc2)S3)CC1
 : 6 | 3.0 | -32 | -18 | 3 | -0.3 | -1 | -3 | -0.1 | -6
#50 O=C1C2C3c4ccccc4C(c4ccccc43)C2C(=O)N1CN1CCOCC1 (centres undefined)
 : 3 | -0.5 | 1 | -1 | 2 | 0.4 | -3 | -13 | 0.3 | 5
#51 O=C(Nc1nnc(-c2cc(Cl)ccc2Cl)o1)c1ccco1
 : -4 | 1.8 | -2 | 14 | -9 | 0.3 | -9 | -6 | -0.7 | 9
#52 COc1ccc(CCNC(=O)c2ccc(CN3CCC(Cc4ccccc4)CC3)cc2)cc1
 : 40 | 8.4 | -7 | . | -3 | . | 6 | -13 | 0.0 | .
#53 O=C(COc1ccc(Cl)cc1Cl)N1CCCCCC1
 : 17 | -1.9 | -4 | . | 0 | . | -10 | 3 | 0.9 | .
#54 O=C(c1ccc(NS(=O)(=O)c2ccc(F)cc2)cc1)N1CCCCCC1
 : 3 | 3.4 | -7 | -20 | 4 | 1.7 | -6 | -7 | -0.9 | 1
#55 Cc1cccc(C)c1NS(=O)(=O)c1ccc(OCCNS(C)(=O)=O)cc1
 : 17 | -0.6 | -1 | -8 | 3 | -4.1 | 4 | -11 | 0.7 | -3
#56 C=CCOC(=O)C1=C(C)NC(SCC(=O)Nc2nccs2)=C(C#N)C1c1cccs1 (centres undefined)
 : 52 | 3.3 | -2 | . | 13 | . | 0 | 24 | -0.9 | .
#57 COc1ccc(-c2cc3cccc(OC)c3oc2=O)cc1
 : 7 | 0.0 | -4 | 4 | 0 | -2.5 | -6 | -4 | -6.6 | 7
#58 O=C(Nc1ncc(S(=O)(=O)c2ccc([N+](=O)[O-])cc2)s1)c1cccc2ccccc12
 : 58* | -0.7 | 2 | . | 32 | . | 1 | 20 | 0.5 | .
#59 O=C(NCCc1ccc(Cl)cc1)C1CCN(C(=O)c2ccc(F)cc2)CC1
 : 10 | -0.4 | 22 | 1 | -1 | 2.3 | 20 | 7 | 0.7 | -1
#60 O=C(Nc1ccc(N2CCOCC2)cc1)c1ccc(S(=O)(=O)N2CCCCC2)cc1
 : -15 | 3.8 | -1 | . | 2 | . | 1 | -14 | -0.2 | .
